# HSD17B inh: inhibitors of human HSD17B10 dehydrogenase. Q99714. recombinant HSD17B10, NADH fluorescence kinetic; many of its hits are not listed in these tables. Potency, µM (top dose mostly 57.1 µM), for inactives: at the top dose activity change, negative = inhibition, most hits filed as inhibitors. actives 7.6% (n = 75,000). AID 893; active = well fitted inhibition curve with a large enough effect; inconclusive = small, poorly fitted or top-dose-only effect; inactive = no such curve, though single readings can be large or run the other way;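 note: the protocol describes HADH2 (HSD17B10) and not the HSD17B4 of the title; nearly all actives have a fitted effect of over 70% in size; most hits overshoot -100% by far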
#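 Enzyme plus compound, 15 min room temperature; substrate mix added (NAD+ 1 mM, beta-hydroxybutyryl-CoA 90 uM final); plates read kinetically for NADH fluorescence. HADH2 was His-tagged, E. coli-derived, 20 nM.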
# Active calls of the source: *; u = inconclusive; [ ] = remark or other dose. % is set by controls: 0 for no effect and ±100 for the full control effect; potency is the fitted concentration of half-maximal effect. Only part of the results is shown; rates above refer to the full screens.
SMILES,HSD17B inh
CCN(CC)c1ccc(-n2c(C)c(C(C)=O)c(C(C)=O)c2C)cc1,-1%
Cc1cccc(NC(=O)c2cnc3sccn3c2=O)c1C,u
O=c1c(-c2ccc(O)cc2)coc2c(C3OC(CO)C(O)C(O)C3O)c(O)ccc12 (centres undefined),32µM*
CSc1nc(NC(C)(C)C)nc(Oc2ccc(=O)[nH]n2)n1,-8%
COc1ccccc1NC(=O)CSc1nc(O)cc(=O)n1-c1ccccc1OC,-25%
COc1ccc2ccccc2c1/C=N/O,-11%
CCOc1c(C)cc(-c2ncccc2O)cc1C,25µM*
CCC(=O)c1ccccc1OCCCn1cncn1,25µM*
CN(C)C(=O)NC1CCCCCCCCCCC1,-3%
CC1(C)C(c2ccccc2)=[N+]([O-])CN1O,4%
C#CCNc1cc(C)nc2ncnn12,1%
O=C1CNC(=O)/C1=C\N1CCN(C(c2ccccc2)c2ccccc2)CC1,5%
CCCN(C/C=C\I)[C@@H]1CCc2cccc(O)c2C1,-6%
COc1ccc2[nH]cc(CCNc3cc(-c4ccccc4OC)ncn3)c2c1,12%
O=C(Cn1cc2c(n1)CCCC2)NCCCN1CCN(Cc2ccccc2)CC1,4%
CCOC(=O)CCc1n[nH]c(=O)[nH]c1=O,-5%
CCOc1ccccc1NS(=O)(=O)c1ccc(Br)s1,15%
Cc1nc(NCc2ccco2)[nH]c(=O)c1CCC(C)C,8%
CCOC(=O)c1c(C)[nH]c(C(=O)OCC(=O)Nc2cc(C)ccc2OC)c1C,-5%
C/C(C[n+]1ccccc1)=N\N=C(N)N,3%[11.4 µM]
CC(=O)Nc1c(C(=O)NCc2ccccc2)nnn1Cc1ccccc1,16%
Cc1c(C(=O)OC2CCC(C)CC2)[nH]c2c1C(=O)CCC2 (centres undefined),1%
CC1(C)OC(=O)C(=CNc2ccccc2F)C(=O)O1,0%
O=C(CN1CCOCC1)Nc1scc(-c2ccccc2)c1C(=O)N1CCOCC1,1%
CCN1C(=O)C2C(c3cccc(F)c3)NC(CC)(C(=O)OC)C2C1=O (centres undefined),-4%

# Rewritten field by field: part of the list above.
Cc1c(C(=O)OC2CCC(C)CC2)[nH]c2c1C(=O)CCC2 (centres undefined)
- HSD17B inh = 1%

CC1(C)OC(=O)C(=CNc2ccccc2F)C(=O)O1
- HSD17B inh = 0%

O=C(CN1CCOCC1)Nc1scc(-c2ccccc2)c1C(=O)N1CCOCC1
- HSD17B inh = 1%

CCN1C(=O)C2C(c3cccc(F)c3)NC(CC)(C(=O)OC)C2C1=O (centres undefined)
- HSD17B inh = -4%

# Carrying on.
SMILES,HSD17B inh
Cc1ncsc1CCOC(=O)c1cccnc1,3%
CCC1(CC)C(=O)N=C2c3ccccc3C(=O)N21,5%
CCN(CC)C(=O)Oc1ccc2c(=O)c(-c3ccccc3)coc2c1,-8%
CCN(CC)C(=O)CSc1nc2ccc(NC(=O)CSc3nccn3C)cc2s1,2%
CC(=O)c1ccc(N2CCN(C(=O)C3CCC3)CC2)cc1,-15%
CN(C)CCCN=c1c2ccccc2n(C)c2[nH]c(=O)n(C)c(=O)c12,-7%[11.4 µM]
Cc1ccc(N2C(=O)C3C4C=CC(C4)C3C2=O)cc1C (centres undefined),8%
COc1cc(C(=O)NCc2nnc(SCC(=O)Nc3cc(C)cc(C)c3)o2)cc(OC)c1OC,0%
Cc1cc(O)cc(O)c1C(=O)Cc1cscn1,-25%
CC(=O)Nc1ccc(N)cc1,-5%
CS(=O)(=O)N(CCc1ccccc1)CC(=O)NCc1cccnc1,0%
CCOC(=O)c1cc(OC(=O)c2cccs2)n(-c2ccccc2)n1,6%
CCOC(=O)c1ccccc1NC(=O)CC1Nc2ccccc2NC1=O (centres undefined),0%
Cn1c(C(=O)O)c(CC(=O)Nc2ccccc2F)c2ccccc21,5%
CCc1nccn1S(=O)(=O)c1ccc(C)c(C)c1,10%
CSc1cc(/C=N/O)c(SC)s1,-5%
O=C(c1ccco1)N1CCN(C(=O)c2ccccc2Oc2ccccc2)CC1,3%
CCOC(=O)C(C)c1n[nH]c(=O)c2ccccc12 (centres undefined),7%
O=C1NC(c2cccs2)C(C(=O)c2ccccc2)C(O)(C(F)(F)F)N1 (centres undefined),-2%
COCCNC(=O)c1c[nH]c2cc(OC)c(OC)cc2c1=O,-28%
c1ccc(CSc2nnc(-c3cccs3)n2Cc2ccco2)cc1,-5%
CC(C)(C)NC(=O)NC(=O)COC(=O)Cn1c(C(F)(F)F)nc2ccccc21,6%
CCCCOc1ccc(C(=O)NCc2ccco2)cc1,-4%
c1ccc(CNc2ccc3c(c2)ncn3C2CCCCC2)nc1,-16%
CCCn1c(SCC(=O)Nc2nonc2C)nnc1-c1ccoc1C,-3%
SMILES,HSD17B inh
N#CC1=C(N)N=C(SCc2ccccc2)C(C(N)=O)C12CCCCC2 (centres undefined),-19%
Cc1ccc(C)c(N2CCN(C(=O)C3CCCN(S(=O)(=O)c4c(C)[nH]c(=O)[nH]c4=O)C3)CC2)c1 (centres undefined),0%
O=C(Nc1ccccc1)NC1(C(=O)NCCCN2CCOCC2)CCCCC1,-1%
CC1Cc2ccccc2N1C(=O)CSc1ncccc1C(=O)O (centres undefined),10%
CCN(CC)CCNc1ccnc2cc(Cl)ccc12,u
O=C(CN1C(=O)NC2(CCCc3ccccc32)C1=O)N1CCc2ccccc2C1 (centres undefined),0%
CCn1c(CNc2ccc(C)cc2)nnc1SCC(=O)NCc1ccccc1,3%
CCC(=O)Nc1nc(OC)cc(OC)n1,-11%
CC1CCN(S(=O)(=O)c2ccc(NC(=O)Cn3nnc(-c4ccccc4F)n3)cc2)CC1,-7%
COc1ccc(CCNC(=O)C2CCN(S(=O)(=O)c3cnc[nH]3)CC2)cc1OC,5%
O=C1/C(=C/c2ccccc2)[C@@H](NC2CCCCC2)c2ccccc21,-12%[11.4 µM]
COC(=O)c1ccc(OCC(O)CN2CCC(C)CC2)cc1 (centres undefined),-3%
CCCOc1ccc(S(=O)(=O)NCc2ccc(OC)cc2)cc1,1%
CC(C)(C)OC(=O)N1CCC[C@H]1c1nnc(SCc2c(F)cccc2Cl)o1,-5%
O=C(Nc1ccc(S(=O)(=O)N2CCC(C(=O)NC3CCCCC3)CC2)cc1)c1ccco1,u
COc1ccc(-n2c3c(cc(C(=O)N4CCC(C)CC4)c2=O)C(=O)CC(C)(C)C3)cc1,-13%
O=C(Nc1ccc2c(c1)OCO2)c1c(F)cccc1F,7%
Cc1nc2sc3c(c2c2nc(-c4ccco4)nn12)CC(C)(C)OC3,7%
CCc1cc(C(=O)Nc2ccccc2)cs1,0%
COc1ccc(-c2nnc3sc(COc4ccc(C)cc4)nn23)cc1,-3%
CCCS(=O)(=O)NCCc1csc(-c2cccnc2)n1,-22%
O=C(O)CCCCCN1C(=O)C(=O)/C(=C(/O)c2ccccc2)C1c1ccccc1 (centres undefined),10%
CCOC(=O)C1CCN(C(c2cc3c(C)ccc(C)c3[nH]c2=O)c2nnnn2C2CCCCC2)CC1 (centres undefined),13%
Cc1ccc(N2CC(C(=O)Nc3cc(C)ccc3F)CC2=O)cc1 (centres undefined),4%
O=C(O)C1C2C=CC(C3CC23)C1C(=O)NCCc1ccccc1 (centres undefined),-11%
SMILES,HSD17B inh
Cc1cc(C(C)(C)C)oc1C(=O)N1CCN(C(=O)c2oc(C(C)(C)C)cc2C)CC1,-5%
Cc1cc(Nc2ccccc2N2CCOCC2)n2ncnc2n1,-6%
Cc1ccc2c(CC(=O)OC(C)C(=O)NCc3ccc4c(c3)OCO4)coc2c1 (centres undefined),7%
CN1CCN(c2nc3c(c(=O)[nH]c(=O)n3C)n2CCCSc2ncccn2)CC1,-3%
CN(C)CCSc1nc(N)c2c3c(sc2n1)COC(C)(C)C3,-7%
CC(C)C(c1nnnn1Cc1ccccc1)N1CCC(C(N)=O)CC1 (centres undefined),-8%
COc1ccccc1CNC(=O)CSc1nc2nc(C)cc(C)n2n1,-4%
CCn1nnnc1SCCSc1nnnn1CC,3%
CC(OC(=O)c1cccs1)C(=O)NCc1cccs1 (centres undefined),10%
CC[C@@H]1OC(=O)[C@H](C)[C@H](O[C@@H]2C[C@](C)(OC)[C@H](O)[C@H](C)O2)[C@H](C)[C@H](O[C@@H]2O[C@@H](C)C[C@@H](N(C)C)[C@@H]2O)[C@](C)(O)C[C@H](C)[C@@H]2N[C@H](COCCOC)O[C@H]([C@@H]2C)[C@]1(C)O,3%[25.6 µM]
O=C1CSC2(CCN(CCCN3c4ccccc4Sc4ccc(Cl)cc43)CC2)N1,4%[11.4 µM]
CCn1c(NC(=O)c2cccs2)nc2ccccc21,-7%
CCC(C)[C@H](N)c1nnc(SCc2cccc(F)c2)o1 (some centres undefined),5%
COc1cc(NC(=O)c2cc3sccc3n2C)cc(OC)c1,0%
CCCC(C(=O)NCc1ccco1)N(C(=O)CNS(=O)(=O)c1ccc(Cl)cc1)C1CCCC1 (centres undefined),-8%
c1cncc(-c2nc(-c3ccco3)cs2)c1,u
O=C(Cn1nnc(-c2ccccc2)n1)c1ccccc1,-4%
CCOC(=O)c1[nH]nc2c1C(=O)N(Cc1ccccc1)C2=O,u
Cc1ncsc1CCSc1n[nH]c(=O)n1-c1ccccc1,-6%
CSc1nc2ccc(NS(=O)(=O)c3ccc4c(c3)OCCO4)cc2s1,u
Cc1oc(-c2cccs2)nc1CS(=O)CC(=O)NCCCN1CC(C)CC(C)C1 (centres undefined),-4%
CCCCn1c(=O)n(CC(=O)Nc2ccc(C)c(Cl)c2)c(=O)c2c1ncn2Cc1ccco1,-18%
COC(=O)c1ccccc1NC(=O)NCc1ccco1,-29%
CC(=O)OCC1C2CC[C@H]3C(OCc4ccc(F)cc4C(F)(F)F)OC[C@]4(C)[C@H]3C2=C(CN4C(=O)OC(C)(C)C)[C@H](C)C1COC(C)=O (some centres undefined),12%
O=C(CN1CCN(c2ccccn2)CC1)Nc1cc(C(F)(F)F)ccc1Cl,7%

# 6 entries from above, sorted by count of non-hydrogen atoms, high to low:
SMILES,HSD17B inh
CC(=O)OCC1C2CC[C@H]3C(OCc4ccc(F)cc4C(F)(F)F)OC[C@]4(C)[C@H]3C2=C(CN4C(=O)OC(C)(C)C)[C@H](C)C1COC(C)=O (some centres undefined),12%
CCCCn1c(=O)n(CC(=O)Nc2ccc(C)c(Cl)c2)c(=O)c2c1ncn2Cc1ccco1,-18%
CN1CCN(c2nc3c(c(=O)[nH]c(=O)n3C)n2CCCSc2ncccn2)CC1,-3%
O=C(CN1CCN(c2ccccn2)CC1)Nc1cc(C(F)(F)F)ccc1Cl,7%
CSc1nc2ccc(NS(=O)(=O)c3ccc4c(c3)OCCO4)cc2s1,u
O=C(Cn1nnc(-c2ccccc2)n1)c1ccccc1,-4%

# (continued)
SMILES,HSD17B inh
CC(=O)c1ccc(N2CCN(C(=O)CCCn3c(=S)[nH]c4cc5c(cc4c3=O)OCO5)CC2)cc1,-24%
COCCOC(=O)C1=C(C)NC(=O)NC1c1c(OC)ncnc1OC (centres undefined),3%
Cc1c(C(=O)N2CCOCC2)sc(NC(=O)c2ccc3c(c2)OCO3)c1C#N,3%
CCOc1ccc(NC(=O)CSc2nnc(-c3ccccn3)n2N)cc1,2%
CCOC(=O)N1CCC(N2CCN(S(=O)(=O)CC)CC2)CC1,9%
O=C(Nc1ccccc1C(=O)N1CCCCC1)C1CCCCC1,0%
Cc1cccc(Cn2cnc3c(nnn3Cc3ccccc3F)c2=O)c1,4%
CCC(SC1=Nc2ccccc2C2=NC(CC(C)C)C(=O)N12)C(=O)Nc1ccc2c(c1)OCO2 (centres undefined),-20%
CCn1c(SCC(=O)Nc2cc(C)on2)nnc1-c1ccc(S(=O)(=O)N2CCCC2)cc1,-10%
CCOC(=O)N1CCN(C(=O)COc2cc(=O)n(CC)c3ccccc23)CC1,-2%
O=S(=O)(c1ccccc1)N1CCN(C2CCCCCCC2)CC1,2%
Cc1ccc(S(=O)(=O)N[C@H](C(=O)N2CCC(C(=O)NCC(=O)O)CC2)C(C)C)cc1,1%
COc1ccccc1C1NC(=O)NC(C)=C1C(C)=O (centres undefined),-3%
O=C1c2ccccc2C(=O)N1CCN1CCOCC1,7%
O=C(Nc1ccccc1Oc1ccccc1)c1cnccn1,22%
COc1cc(C(c2nnnn2C2CCCC2)N2CCN(C)CC2)cc(OC)c1OC (centres undefined),-5%
Cc1ccc(CN(Cc2cc3cc(C)ccc3[nH]c2=O)C(=O)N2CCOCC2)cc1,-24%
Cc1ccc(CNc2ccc(N3CCOCC3)c(C(=O)O)c2)s1,u
CN(C)Cc1ccccc1-c1cncnc1Nc1ccc(F)cc1,-24%
O=c1nc(N2CCOCC2)nc2n1CCO2,-5%
N#C/C(=C(/O)COC(=O)c1ccc2c(c1)OCCO2)c1nc2ccccc2[nH]1,-8%
O=C(CSc1nnc2ccccn12)N1CCOCC1,u
CC(C)(C)NC(=O)c1cc(NC(=O)c2ccco2)cc(NC(=O)c2ccco2)c1,2%
C#CCSc1nsc(SCC#C)c1C#N,-11%
COc1ccc(S(=O)(=O)N2CCn3c2nc2ccccc23)cc1,7%
SMILES,HSD17B inh
COc1cc(Cn2c(C(=O)O)cc3sccc32)cc(OC)c1OC,-1%
COc1ccc(N(CC(=O)N2CCCCC2)S(=O)(=O)c2c(C)nn(C)c2C)cc1,8%
CC(C)C1CC(c2csc(N)n2)CCO1 (centres undefined),-12%
O=C(c1ccco1)N1CCN(Cc2ccccc2C(F)(F)F)CC1,3%
CCOC(=O)c1cccc(NC(=O)CSc2nnc(COc3ccccc3C)o2)c1,-1%
Cn1c(=O)oc2cc(S(=O)(=O)N3CCN(c4ccccn4)CC3)ccc21,-2%
Cc1nnc2n(Cc3ccccc3)c(=O)c3c4c(sc3n12)CCCC4,-10%

# From PubChem BioAssay
